# Screening results deposited in PubChem BioAssay by several laboratories.
# eIF4H FP inh – inhibitors of RNA binding by human eIF4H; Q15056; eIF4H fluorescence polarization binding assay; inhibition, % at 35 µM; actives 0.94% (n = 290,000);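 active means 50% or more with normal probe brightness, or confirmed in later tests; about a fifth of its hits are not listed in these tables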;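 further: calls also rest on retests at 20 µM and on dose response follow-up; 0% = protein and probe with vehicle and 100% = probe without protein; strong numbers were not always called active; many hits fall short of the cut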
# HIV Env fusion – inhibitors of HIV Env-mediated cell fusion. HeLa-JRFL Env/CEM21 cell fusion, luciferase. inhibition, % at 12.3 µM. actives 1.1% (n = 360,000). AID 651610;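 active means mean replicate inhibition score of at least 50 and every replicate individually at or above 50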;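 further: 0% = plate neutral controls and 100% = maraviroc near 300 nM; one replicate is shown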
# PABP polyA inh – PABP-poly(A) binding inhibition | P11940 | PABP-poly(A) RNA binding, fluorescence polarization | inhibition, % at 35 µM | actives 1% (n = 290,000);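 active means 50% or more with normal probe brightness, or confirmed in later tests; about a fifth of its hits are not listed in these tables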;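 further: calls also rest on retests at 20 µM and on dose response follow-up; controls were probe without protein and protein plus probe with vehicle; some compounds called inactive have numbers as strong as hits; many hits fall short of the cut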
# Target sequence (P11940 whole entry, looked up): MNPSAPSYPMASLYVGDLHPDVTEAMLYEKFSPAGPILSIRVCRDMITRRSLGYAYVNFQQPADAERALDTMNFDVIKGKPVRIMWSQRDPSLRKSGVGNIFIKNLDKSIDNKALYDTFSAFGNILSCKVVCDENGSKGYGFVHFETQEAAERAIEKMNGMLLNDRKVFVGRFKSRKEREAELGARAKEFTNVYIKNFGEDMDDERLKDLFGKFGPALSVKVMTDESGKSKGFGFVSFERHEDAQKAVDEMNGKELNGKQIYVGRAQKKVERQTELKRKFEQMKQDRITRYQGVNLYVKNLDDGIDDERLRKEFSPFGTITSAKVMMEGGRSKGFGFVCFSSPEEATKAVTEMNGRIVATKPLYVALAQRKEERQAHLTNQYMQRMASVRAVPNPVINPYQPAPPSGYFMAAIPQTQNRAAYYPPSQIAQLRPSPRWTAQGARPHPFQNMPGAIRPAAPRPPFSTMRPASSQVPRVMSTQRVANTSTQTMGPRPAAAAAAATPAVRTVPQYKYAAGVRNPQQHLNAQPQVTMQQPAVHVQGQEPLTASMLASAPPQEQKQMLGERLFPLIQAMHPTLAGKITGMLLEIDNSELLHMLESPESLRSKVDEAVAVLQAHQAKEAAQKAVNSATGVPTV
# CSC inhib – blocks cancer stem cells. cancer stem cell-like cells viability, luminescence. inhibition, % at 7.5 µM. actives 1.1% (n = 300,000). AID 2717;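 active means mean at 75% or more and at least half the replicates too; tested in HMLE shEcad cells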;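 further: 0% = median of negative and 100% = median of positive control wells; the first replicate is given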
# Rce1 inhib – yeast Ras-converting enzyme inhibition | yeast membranes, quenched prenylated peptide cleavage fluorescence | calls only | actives 0.27% (n = 290,000) | AID 2563;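 active means fall in fluorescence gain of 50% or more versus controls, with final raw signal at or below 3038400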;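 further: plate controls were neutral control wells for no effect and wells lacking membranes for full effect; tested at 10 µM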
# Target sequence (Q03530 whole entry, looked up): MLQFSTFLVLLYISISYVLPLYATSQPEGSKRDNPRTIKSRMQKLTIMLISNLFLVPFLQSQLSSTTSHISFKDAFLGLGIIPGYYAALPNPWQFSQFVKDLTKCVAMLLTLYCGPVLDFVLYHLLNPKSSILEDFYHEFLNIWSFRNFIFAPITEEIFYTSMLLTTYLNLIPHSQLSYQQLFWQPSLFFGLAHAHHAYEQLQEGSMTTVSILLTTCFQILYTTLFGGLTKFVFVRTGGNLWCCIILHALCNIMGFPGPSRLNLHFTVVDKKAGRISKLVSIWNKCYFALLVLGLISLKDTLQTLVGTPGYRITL
# Yeast UUG start – modulators of start codon recognition fidelity in yeast; S. cerevisiae UUG-firefly luciferase reporter, luminescence/redox ratio; activity score, % at 18.7 µM; actives 0.13% (n = 350,000);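 active means replicate mean at a twofold rise or more, about +100% in these data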;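 further: firefly luciferase made from a UUG start codon reports start codon fidelity; reporter light over untreated wells divided by growth signal over untreated wells; some hits fall short of that in this replicate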
# MT1-MMP act inh – blocks activation of human MT1-MMP; actives 0.061% (n = 360,000); P50281; HT1080 RFP-PRO-GFP cells, GFP/RFP ratio fluorescence, overnight; percent of plate control window, DMSO zero; AID 651647; GFP/RFP ratio change, % at 20 µM;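 active means GFP/RFP ratio change of at least 30% with cell ATP level not reduced by more than half and red fluorescence within 50% of control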; further: strong numbers were not always called active
#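 Compound: 20 µM single dose, 1% DMSO / System: HT1080 RFP-PRO-GFP cells / Controls: DMSO and RFP-L50D-GFP cell wells / Read-out basis: GFP/RFP fluorescence ratio / Schedule: overnight compound exposure at 37 °C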
# eIF4H FP inh retest – recorded beside eIF4H FP inh, whose call it bears; inhibition, %; compound at 20 µM; confirmation average;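 mean of two retest wells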
# PABP polyA inh retest – further read-out of PABP polyA inh, marked with its call; inhibition, %; compound at 20 µM; confirmation repeats;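 mean of two retest wells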
# MT1-MMP act inh RFP – second read-out of MT1-MMP act inh, no call of its own (marks repeat the call); RFP signal change, %; measured here: RFP expression control read;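 0 = vehicle wells; hits needed this value within 50% of zero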
# Numbers without * were called inactive; i = inactive; . = not tested or not shown.
SMILES,eIF4H FP inh,HIV Env fusion,PABP polyA inh,CSC inhib,Rce1 inhib,Yeast UUG start,MT1-MMP act inh,MT1-MMP act inh RFP,others
CCCCC[C@H]1CN(C2CCCCC2)C(=O)[C@@H]1CC(=O)NCc1ccccc1,-5,-2,12,-3,i,-6,-4,-4,
NC(=O)c1cc(-c2ccccc2)nc(N2CCCCCC2)n1,-1,.,-10,.,i,-31,0,-1,
Cc1ccccc1-c1nc(CS(=O)CC(=O)NC2CCCCC2)c(C)o1 (stereo unspecified),-6,8,5,-8,i,3,0,2,
Cc1nc(SCC(=O)Nc2ccccc2C(F)(F)F)c(C#N)c(C)c1CC(=O)c1ccc(Br)cc1,1,.,-3,33,i,.,.,.,
Cc1cccc(NC(=O)c2cccc(N3C(=O)C4C5C=CC(C6CC56)C4C3=O)c2)c1 (stereo unspecified),-12,13,-12,-15,.,-6,5,-8,
COC(=O)c1ccccc1NC(=O)CCCn1nc(C)c2c(C)n(-c3ccccc3)nc2c1=O,1,-7,0,5,i,-6,-9,-2,
CCN(c1cccc(C)c1)S(=O)(=O)c1cc(CN2C(=O)c3cccnc3C2=O)ccc1OC,-8,10,0,-15,i,20,0,4,
N/C(=N\c1nc2ccccc2o1)NC(=O)c1ccc(F)cc1,-10,-144,-6,4,i,-7,.,.,
O=C(c1c(F)c(F)c(F)c(F)c1F)N1CCN(Cc2ccc3c(c2)OCO3)CC1,.,8,.,5,i,.,-3,-8,
CC(C)(C)c1ccc(C(=O)N/N=C/c2cccc(Cl)c2)cc1,-3,-27,19,52,i,4,1,1,
CCOc1ccc(CCNC(=O)C2CCCN(S(=O)(=O)c3c(C)n[nH]c3C)C2)cc1OCC (stereo unspecified),4,18,1,.,.,-6,1,-6,
O=C(CSc1nnc(CNC(=O)c2ccccc2)o1)NCC1CCCO1 (stereo unspecified),-5,-1,7,0,i,1,-2,1,
Cn1c2ccccc2c(=O)c2ccc(C#CC3(O)CCCCC3)cc21,-1,-35,-2,59,i,-72,5,3,
O=C(O)C(Cc1ccc(O)cc1)N1C(=O)C2CCCCC2C1=O (stereo unspecified),4,9,-3,-14,i,-11,-2,5,
CC1CCCCC1NC(=O)C1CCCN1S(=O)(=O)c1cccc2nsnc12 (stereo unspecified),-1,16,-4,11,i,2,1,-1,
Cc1c(C(=O)N2CCC2)oc2ccc(Br)cc12,.,14,.,-2,.,-25,-2,2,
O=C(CCCc1cccs1)Nc1nc2c(s1)CCCC2,-4,-83,-3,37,i,-9,-5,-1,
COc1cc(-c2cnc3c(NC(C)=O)cc(-c4ccccc4CN(C)C)cn23)cc(OC)c1OC,.,-14,.,.,.,-21,2,-5,
CCCOP(=O)(c1ccc(N(C)C)cc1)C(Nc1ccccc1)c1ccc(N(C)C)cc1 (stereo unspecified),-2,7,1,3,i,-11,-6,-6,
COc1ccc(NC(C)=O)cc1S(=O)(=O)N(C)Cc1c(C)nn(-c2ccccc2)c1C,.,-20,.,.,.,-7,-1,1,
COCCNC(=O)c1ccc2snnc2c1,-3,-428,8,-10,i,-26,-1,-1,
Cc1oc2ccccc2c1CNC(=O)N(C)C,7,10,-2,-12,i,.,-6,-3,
O=S(=O)(Nc1nc(-c2ccccc2)cs1)c1cccc(C(F)(F)F)c1,1,-9,7,33,i,-2,1,1,
CCOC(=O)c1c(O)cc(OC)cc1CCc1ccccc1,.,4,.,.,.,-8,0,-1,
COC(=O)C1=C(C)NC(=O)/C1=C\c1ccc2c(c1)OCO2,24,-71,16,-2,i,-4,0,-3,

# New compounds follow
SMILES,eIF4H FP inh,HIV Env fusion,PABP polyA inh,CSC inhib,Rce1 inhib,Yeast UUG start,MT1-MMP act inh,MT1-MMP act inh RFP,others
O=C(Nc1ccc(Oc2ccc(NC(=O)Nc3ccc([N+](=O)[O-])cc3)cc2)cc1)Nc1ccc([N+](=O)[O-])cc1,-12,60*,-6,50,i,-15,11,-34,
CC(=O)N(c1nnc(-c2ccc(C)cc2)s1)C1CCCC1,4,-10,2,12,i,0,-4,1,
Cc1n[nH]c(C)c1N1C(=O)c2cccc3c(Br)ccc(c23)C1=O,17,.,-8,9,i,-10,-92,-2,
Cn1nccc1C(=O)N1CCCC(N2CCN(c3cccc(C(F)(F)F)c3)CC2)C1 (stereo unspecified),-10,25,5,-15,.,-11,-2,-2,
CCOc1ccc2[nH]c3nc(SCC(=O)NC4CCCC4)nnc3c2c1,14,-54,8,18,i,-9,0,-6,
CCCCCn1nc(C)c(/C=N\NC(=O)c2cc(C)oc2C)c1C,-8,.,-7,-2,i,-17,9,4,
CCCNc1nc2c(c(=O)[nH]c(=O)n2C)n1CCOc1ccccc1,-6,-21,-1,-16,i,46,3,0,
COc1ccc(C2C(C(=O)Nc3ccccc3)=C(C)Nc3nc(CCCO)nn32)cc1 (stereo unspecified),-5,8,-6,-2,i,-13,9,3,
C/C(=N\NC(=O)CSc1nc2ccccc2s1)c1ccco1,-5,-8,-10,-11,i,.,-2,-4,
CN(C)c1ncnc2c1ncn2-c1ccccc1,.,-143,.,.,.,-23,0,-1,
Fc1cccc(Cl)c1CNC(c1ccccc1)c1ccccc1,-4,.,29,16,i,-1,-3,-5,
Cc1cc2nc3s/c(=C/c4ccc(-c5ccccc5C(=O)O)o4)c(=O)n3c2cc1C,36,-3,42,-3,i,40,-61,1,
C=CCN1[C@@H](Cc2ccccc2)COCCS1(=O)=O,.,-15,.,.,.,-20,-3,1,
CCOC(=O)C1(C(F)(F)F)N=C(c2ccccc2F)OC(N(C)C)=N1 (stereo unspecified),-3,-6,-7,-9,i,-7,-2,-1,
CCOc1ccc(NC(=O)N2CCN(S(C)(=O)=O)CC2)cc1,-1,17,0,2,i,.,0,1,
CCCc1sc(N)nc1-c1ccc(Cl)cc1,-2,2,-10,-2,i,.,-7,-3,
Cc1ccc(-c2ccc(SCC(=O)NC3CCCCC3)nn2)cc1,52,-24,4,.,i,-20,-1,-10,eIF4H FP inh retest=-7;PABP polyA inh retest=5
Cc1ccc(CNc2ncnc3ccc(-c4ccc(CO)o4)cc23)o1,.,23,.,.,.,-33,-16,-13,
CCN(CC)C(=O)c1cccc(-c2csc(C(O)c3cccc(Cl)c3)n2)c1 (stereo unspecified),.,29,.,.,.,-6,-4,-21,
Cc1cc2c(cc(C(=O)OC(C(=O)NCC3CCCO3)C(C)C)n2C)o1 (stereo unspecified),-8,24,6,6,.,.,0,-7,
COc1cccc2cc(C(=O)Nc3cccc(C)n3)c(=O)oc12,1,.,0,-19,i,-6,3,1,
CCCCn1c(=O)[nH]c2ccccc21,-2,-2,8,-2,i,2,3,4,
CC(C)COC(=O)Nc1nnc(SCc2ccccc2F)s1,7,-11,6,2,i,-13,4,1,
O=[N+]([O-])c1ccc(Nc2c3ccccc3nc3ccccc23)cc1,9,31,0,.,i,.,8,-18,
CCOC(=O)c1cc(C)sc1NC(=O)CCC(=O)O,-2,4,4,-6,.,-18,1,6,

# Continued.
SMILES,eIF4H FP inh,HIV Env fusion,PABP polyA inh,CSC inhib,Rce1 inhib,Yeast UUG start,MT1-MMP act inh,MT1-MMP act inh RFP,others
O=C(NC1(Cc2ccc(O)cc2)CCCCC1)c1ccccc1,3,18,2,-9,i,-1,-1,-2,
COc1ccccc1OCCNC(=O)c1cc(F)c(F)cc1Cl,-3,2,-2,5,i,.,4,10,
COc1ccc(C(=O)Nc2c(Cl)cc(Cl)cc2C(=O)NCc2ccco2)cc1,9,-43,8,-13,i,7,0,-1,
CC(C1CC2CCC1C2)n1c(-c2cccs2)n[nH]c1=S (stereo unspecified),9,3,-3,0,i,-22,3,-9,
O=C(CSc1n[nH]c(-c2ccncc2)n1)Nc1ccccc1,8,5,-5,-11,i,-14,-2,0,
CCOC(=O)NC(N(O)c1cccc(Cl)c1)C(Cl)(Cl)Cl (stereo unspecified),0,-8,-6,-5,i,-17,1,0,
Cc1ccc(S(=O)(=O)N2CCN(C(=O)c3ccccc3OCc3c(C)noc3C)CC2)cc1,.,8,.,.,.,-4,-1,3,
CCOCCn1c(N2CCN(c3ccccc3)CC2)nc2c1c(=O)n(C)c(=O)n2C,-1,-2,-5,-1,i,3,0,0,
COc1cccc(-c2cc(C(F)(F)F)nc(-n3ccc([N+](=O)[O-])n3)n2)c1,6,-1,-2,-4,i,.,4,1,
O=C(OCc1cn([C@@H]2CN(CC3CCCCC3)[C@@H](c3ccccc3)C[C@H]2O)nn1)c1ccccc1,.,-9,.,.,.,-4,-2,-5,
O=C(NC(=S)Nc1ccc(-c2nc3ncccc3o2)cc1)c1ccccc1F,-5,15,5,11,i,.,2,0,
O=C1CN(C(=O)COC(=O)CNC(=O)c2ccc(Cl)cc2)c2ccccc2N1,8,-4,3,-19,i,.,-5,0,
COCCNC(=S)N/N=C(\C)c1cccc([N+](=O)[O-])c1,-9,-12,-10,-19,i,.,-2,1,
O=C(Cc1ccc(S(=O)(=O)N2CCOCC2)s1)N1CCN(c2ccc(C(F)(F)F)cc2[N+](=O)[O-])CC1,.,-6,.,10,.,-9,-9,-18,
CCOC(=O)C1=C(C)N(C)C(=S)NC1c1cccc(Cl)c1Cl (stereo unspecified),4,-4,-2,.,i,-19,-2,1,
Cc1ccc(/C=N/NC(=O)c2nnn(-c3nonc3N)c2CN(C)C2CCCCC2)cc1,-18,-9,-5,3,i,-24,-2,2,
Cc1c(NC(=O)COC(=O)Cc2ccc(Br)cc2)c(=O)n(-c2ccccc2)n1C,.,.,.,4,.,-7,-1,-4,

# Among those listed so far, nine contain an aryl methoxy group:
SMILES,eIF4H FP inh,HIV Env fusion,PABP polyA inh,CSC inhib,Rce1 inhib,Yeast UUG start,MT1-MMP act inh,MT1-MMP act inh RFP,others
CCN(c1cccc(C)c1)S(=O)(=O)c1cc(CN2C(=O)c3cccnc3C2=O)ccc1OC,-8,10,0,-15,i,20,0,4,
COc1cc(-c2cnc3c(NC(C)=O)cc(-c4ccccc4CN(C)C)cn23)cc(OC)c1OC,.,-14,.,.,.,-21,2,-5,
COc1ccc(NC(C)=O)cc1S(=O)(=O)N(C)Cc1c(C)nn(-c2ccccc2)c1C,.,-20,.,.,.,-7,-1,1,
CCOC(=O)c1c(O)cc(OC)cc1CCc1ccccc1,.,4,.,.,.,-8,0,-1,
COc1ccc(C2C(C(=O)Nc3ccccc3)=C(C)Nc3nc(CCCO)nn32)cc1 (stereo unspecified),-5,8,-6,-2,i,-13,9,3,
COc1cccc2cc(C(=O)Nc3cccc(C)n3)c(=O)oc12,1,.,0,-19,i,-6,3,1,
COc1ccccc1OCCNC(=O)c1cc(F)c(F)cc1Cl,-3,2,-2,5,i,.,4,10,
COc1ccc(C(=O)Nc2c(Cl)cc(Cl)cc2C(=O)NCc2ccco2)cc1,9,-43,8,-13,i,7,0,-1,
COc1cccc(-c2cc(C(F)(F)F)nc(-n3ccc([N+](=O)[O-])n3)n2)c1,6,-1,-2,-4,i,.,4,1,

# An unsorted share of the library; about 2.9% have a hit in one of these screens.
